Assay outcomes from PubChem BioAssay.
Cruzain inh noDet: blocks cruzain activity in detergent-free assay | P25779 | purified cruzain, Z-FR-AMC fluorescence, no detergent | Potency, µM, for the others: max response, negative = inhibition, most hits filed as inhibitors | actives 2.3% (n = 200,000) | AID 1476;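 also: plate controls were enzyme without inhibitor for no effect and buffer without enzyme for full effect; nearly all actives have a fitted effect of over 40% in size; top concentration of the series not given in the record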
Target sequence (P25779 123-467 limits assumed): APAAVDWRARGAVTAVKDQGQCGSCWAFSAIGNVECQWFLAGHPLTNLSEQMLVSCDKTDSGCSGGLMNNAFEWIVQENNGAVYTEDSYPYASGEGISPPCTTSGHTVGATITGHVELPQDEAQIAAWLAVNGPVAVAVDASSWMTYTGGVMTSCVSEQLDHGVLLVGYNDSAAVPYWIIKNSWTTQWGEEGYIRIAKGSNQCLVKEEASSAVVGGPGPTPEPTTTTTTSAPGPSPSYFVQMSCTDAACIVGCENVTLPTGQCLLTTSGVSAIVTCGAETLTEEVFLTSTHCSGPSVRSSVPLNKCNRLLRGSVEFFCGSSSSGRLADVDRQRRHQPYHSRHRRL
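Purified cruzain at 1.5 nM, pre-incubated 15 min with compound at room temperature in 100 mM sodium acetate pH 5.5, 5 mM DTT, 0.00005% Triton X-100. Reaction started with 2 uM Z-FR-AMC; AMC fluorescence increase over 60 s gives rate.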
SARS PLP yeast: SARS-CoV PLP inhibition in yeast; S. cerevisiae expressing SARS-CoV PLpro, growth rescue; control for the full effect not named in the record; Potency, µM (titrated, usually from 32.9 µM), for inactives: at the top dose activity, positive = growth rescue; actives 0.19% (n = 330,000); AID 485353; active means well fitted rising curve with a large enough effect; inconclusive means small, poorly fitted or top-dose-only effect; inactive means no such curve, though single readings can be large or run the other way; also: 0% is about no effect; nearly all actives have a fitted effect of over 55% in size; growth read by luminescence after 48 h
Cruzain inh Det: blocks cruzain activity in presence of Triton detergent; purified cruzain, Z-FR-AMC fluorescence, 0.01% Triton; Potency, µM, for inactives: max response, negative = inhibition, usual class: inhibitors; AID 1478; P25779; actives 0.43% (n = 200,000);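 also: plate controls were neutral wells for no effect and buffer without enzyme for full effect; nearly all actives have a fitted effect of over 40% in size; top concentration of the series not given in the record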
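Cruzain (1.5 nM) preincubated 15 min at RT with compound in 100 mM sodium acetate pH 5.5, 5 mM DTT, 0.01% Triton X-100. Reaction started with 2 uM Z-FR-AMC; AMC fluorescence (ex 360/em 450 nm) change over 60 s gave rate.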
NS1 function inh: blocks influenza NS1 protein function; AID 2326; S. cerevisiae slowed by influenza A NS1, growth recovery by OD600; Potency, µM (doses to about 46.1 µM), for inactives: at the highest dose activity, positive = more growth; actives 0.4% (n = 270,000); active means well fitted rising curve with a large enough effect; inconclusive means small, poorly fitted or top-dose-only effect; inactive means no such curve, though single readings can be large or run the other way; also: nearly all actives have a fitted effect of over 50% in size
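A cell-based growth assay was used: compounds that relieve NS1-induced slow growth of budding yeast raise OD600. Assay medium was yeast nitrogen base with ammonium sulphate and -URA supplement, pH 6.0, with 2% galactose.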
Lassa entry inh: inhibitors of Lassa virus binding or cell entry. actives 1.2% (n = 300,000). Potency, µM (series often up to 37.9 µM), for the others: top-dose activity change, negative = inhibition, actives largely listed as inhibitors. Lassa virus pseudotype entry inhibition, cell reporter; control for the full effect not named in the record; active means well fitted inhibition curve with a large enough effect; inconclusive means small, poorly fitted or top-dose-only effect, or effect the other way; inactive means flat fitted curve, though single readings scatter; tested in HEK293 cells; also: % is scaled to controls: 0 for no effect and ±100 for the full control effect; nearly all actives have a fitted effect of over 50% in size; luciferase read-out
Marburg entry inh: inhibitors of Marburg virus binding or cell entry | Marburg virus pseudotyped entry inhibition, cell reporter; control for the full effect not named in the record; about a third of the inactives were read at about 46 µM | Potency, µM (highest dose often 37.8 µM), for inactives: at the top dose activity change, negative = inhibition, most hits filed as inhibitors | actives 1.8% (n = 300,000) | AID 540276; active = well fitted inhibition curve with a large enough effect; inconclusive = small, poorly fitted or top-dose-only effect, or effect the other way; inactive = flat fitted curve, though single readings scatter; tested in HEK293 cells; about a fifth of its hits are not listed in these tables; also: % is scaled to controls: 0 for no effect and ±100 for the full control effect; luciferase read-out
StopGo reporter: lowers the luciferase signal of an FMDV 2A StopGo reporter; human cells with a luciferase reporter of 2A StopGo recoding; control for the full effect not named in the record; actives 1.2% (n = 410,000); Potency, µM (highest dose often 57.9 µM), for inactives: at the top dose signal change, negative = less light; active = well fitted falling curve with a large enough effect; inconclusive = small, poorly fitted or top-dose-only effect; inactive = no such curve, though single readings can be large or run the other way; tested in HEK293T cells; also: % is scaled to controls: 0 for no effect and ±100 for the full control effect; nearly all actives have a fitted effect of over 45% in size; luciferase light after 4 h
RE007 growth inh: less growth of the S. pombe RE007 Vpr strain | S. pombe RE007 Vpr strain, BacTiter-Glo ATP luminescence, 24 h; control for the full effect not named in the record | Potency, µM (doses to about 92.2 µM), for inactives: top-dose activity change, negative = less growth | actives 0.21% (n = 360,000); active = well fitted falling curve with a large enough effect; inconclusive = small, poorly fitted or top-dose-only effect; inactive = no such curve, though single readings can be large or run the other way;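 also: % is scaled to controls: 0 for no effect and ±100 for the full control effect; nearly all actives have a fitted effect of over 50% in size; the assay follows cell death caused by Vpr and the record does not say whether a fall means rescue or toxicity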
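Fission yeast strain RE007, carrying one chromosomally integrated HIV-1 vpr copy, was seeded at OD 0.01 in PMG+AL medium with 23 nL pinned compound. After 24 h at 30 °C and 99% humidity, viability was read by BacTiter-Glo luminescence.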
Numbers without * were called inactive; u = inconclusive; x = no result given; & = joins results of further samples; [ ] = dose if it differs, or a comment. Unless noted, calls follow the shape of the dose curve; as a rule, active = well fitted curve in the direction sought with a large enough effect; inconclusive = small, poorly fitted or top-dose-only effect, or another doubt; inactive = no such curve, though single readings can be large; an effect the other way counts as inactive or inconclusive. Potency is read from the fitted curve at half-maximal effect.

SMILES	Cruzain inh noDet	SARS PLP yeast	Cruzain inh Det	NS1 function inh	Lassa entry inh	Marburg entry inh	StopGo reporter	RE007 growth inh
COc1cc(OC)cc(C(=O)NCC(=O)OC2CCOC2=O)c1 (centres undefined)	0.1%	-6.2%	-3.9%	0.3%	1.0%	-4.7%	-24.8%	8.8%
Cc1nn(C)c(C(=O)N/N=C/c2ccncc2)c1Cl	x	-7.6%	x	1.8%	16.5%	0.5%	-11.4%	-1.4%
CCOc1ccc(NC(=O)c2ccc3snnc3c2)cc1	-0.2%&0.7%	-1.8%	-4.0%&-4.1%	-3.4%	u	3.2%[46.1 µM]	29.9%&14.3%	-21.4%
COc1ccc(S(=O)(=O)NCC(c2ccc3c(c2)OCO3)N2CCOCC2)cc1C (centres undefined)	x	-0.4%	x	x	u	4.4%	38.0%[activator]	-1.5%
COc1ccc(Cn2c(C(=O)O)c(CNCC(C)c3ccccc3)c3ccc(OC)cc32)cc1 (centres undefined)	17.4%	x	-4.5%	x	-19.4%[46.1 µM]	x	-0.3%	x
O=C(OCc1cnc(Cl)s1)c1cccc(Cl)c1Cl	-9.8%	-7.9%	-1.6%	-7.0%	12.1%	u	-5.5%	-1.2%
O=C(Cn1c(-c2ccccc2)c[n+]2ccsc12)c1ccc([N+](=O)[O-])cc1	x	0.5%	x	19.4%	-17.1%	u	0.1%	-5.4%
O=C(O)CNC(=O)c1ccccc1NC(=O)c1ccco1	-2.9%	-1.5%	0.5%	-3.1%	-6.1%	2.8%	-10.1%	4.0%
Cc1cc(C(=O)O)c(=O)[nH]c1C	-5.9%	1.3%	-0.6%	-4.6%	-0.2%	-10.2%	11.6%	-2.3%
COc1ccccc1CNC(=O)C1CCC(CNC(=O)[C@@H]2Cc3ccccc3CN2)CC1 (some centres undefined)	x	-0.4%	x	-2.6%	x	x	-8.6%	-6.8%
FC(F)(F)c1cccc(N2CCc3cn[nH]c32)c1	-9.4%	-37.4%	-4.6%	-24.1%	19.1%	11.8%	42.5%[activator]	u
COc1ccc(OCC(=O)Nc2ccc(N3CCOCC3)cc2)cc1	-11.2%	-1.8%	-0.1%	-1.8%	-14.7%	1.2%	x	-7.9%
Cn1nc(C(=O)OCC(=O)c2ccccc2)c2ccccc2c1=O	x	1.3%	x	x	3.8%	1.6%	-8.3%	-16.6%
CCOC(=O)c1[nH]c2ccc(OC)cc2c1NC(=O)/C=C/c1ccc2c(c1)OCO2	-17.4%	-9.2%	-1.0%	23.8%	0.3%	17.5%	0.5%	10.5%
CCOC(=O)Cc1csc(NC(=O)/C=C\c2ccccc2)n1	x	-3.7%	x	x	1.8%	-22.9%[46.1 µM]	-28.3%	-7.3%
COc1ccc(C)cc1NC(=O)C(Cc1ccccc1)NS(=O)(=O)c1ccc(Br)s1 (centres undefined)	-2.6%	x	-1.1%	x	-11.3%[46.1 µM]	1.1%[46.1 µM]	14.1%	x
NC(=O)N1c2ccccc2CC(=O)c2ccccc21	-6.0%&-1.0%	-3.5%&3.5%	3.2%&5.1%	u	x	-0.6%	-14.4%&8.3%	10.4%[18.4 µM]
O=C1CC(N2CCN(c3ccc(Cl)c(Cl)c3)CC2)C(=O)N1 (centres undefined)	6.9%	0.7%	2.8%	u	-3.1%	5.1%	-7.1%	-5.8%
CC1CC(C)CN(S(=O)(=O)c2cc3c4c(c2)CCC(=O)N4CCC3)C1 (centres undefined)	x	-5.1%	x	x	-15.0%[46.1 µM]	-13.0%	15.3%	-12.9%
Cc1ccc(Cn2ccnc2SCC(=O)NCc2ccccc2)cc1	2.0%	x	-2.3%	x	-4.5%[46.1 µM]	x	8.2%	x
O=C(Nc1nccs1)c1ccc(Cl)c([N+](=O)[O-])c1	x	-14.1%	x	-25.0%	x	x	-10.7%	1.1%
CCC(C)(C)NC(=O)CCCSc1nc2ccccc2s1	x	1.9%	x	x	u	-21.0%[46.1 µM]	10.6%	-0.5%
C=CC1(C)CC(=O)C2(O)C(C)(O1)C(OC(C)=O)C(O)C1C(C)(C)CCC(O)C12C (centres undefined)	7.6%&-0.7%	x	3.5%&3.9%	0.0%	-7.0%	-28.7%&-28.7%&-28.7%&-29.7%&-28.7%	x	x
CSCC[C@H](NC(=O)NC1CCCC1)C(=O)O	x	4.1%	x	-4.3%	x	x	-10.3%	5.7%
COc1cccc(C(=O)N2CCN(Cc3cn[nH]c3-c3ccc(F)cc3F)CC2)c1	x	0.6%	x	1.4%	-27.5%	-3.2%[46.1 µM]	-20.3%	-11.1%
Cc1cccc(N=C2NC(=O)C(CO)(CO)S2)c1	x	-1.8%	x	7.0%	u	20.7%	-0.9%	-0.9%
CC1(C)CC2(CCO1)OC(=O)CC2C(=O)Nc1ccccc1Cl (centres undefined)	x	-0.1%	x	-1.7%	x	x	44.1%[activator]	10.9%
CC(=O)N1CCC(C(=O)N2CCN(S(=O)(=O)c3cccs3)CC2)CC1	x	-5.8%	x	1.9%	3.7%	0.2%	-8.9%	8.5%
CC(C)NC(NC(=O)Cc1ccccc1)C(Cl)(Cl)Cl (centres undefined)	1.1%	0.1%	2.3%	5.1%	12.0%	-9.2%	0.0%	-21.0%
Cc1c(C(=O)OC2CCCCC2)[nH]c2c1C(=O)CC(c1ccccc1Cl)C2 (centres undefined)	7.5%	x	-2.3%	x	u	u	-12.0%	x
O=C(NCCC1CCCCN1S(=O)(=O)c1ccc(F)cc1)C(=O)NCC1CCCO1 (centres undefined)	x	-0.4%	x	x	u	-10.3%	-3.3%	-11.0%
Cc1cc([N+](=O)[O-])nn1CC(=O)NNC(=S)Nc1ccc([N+](=O)[O-])cc1	7.7%	2.9%	3.0%	8.4%	11.1%	2.3%	-6.4%	-9.0%
O=C1CCC(C(=O)Nc2nnc(C3CC3)s2)=NN1	x	-0.5%	x	6.9%	0.9%	-9.6%[46.1 µM]	-9.0%	1.5%
CCCn1cc2c(c1-c1ccc(C)cc1)c(=O)n(C)c(=O)n2C	x	0.1%	x	-5.5%	u	u	-21.5%	16.4%
COc1ccc(C(=O)COc2ccc(C)cc2NC(C)=O)cc1	x	0.3%	x	-4.7%	u	u	19.0%	41.1%
O=S(=O)(/N=C(/Nc1ccc(F)cc1F)c1ccccc1)c1ccc(Br)cc1	-7.7%	-18.5%	-3.2%	-1.2%	x	x	x	x
Cn1c(=O)c2nc(-c3ccccc3)c(-c3ccccc3)nc2n(C)c1=O	x	x	x	x	-21.9%	8.7%	u	6.9%
NC1=NC(=O)C(=Cc2ccccc2)S1	x	x	x	x	5.9%[46.1 µM]	6.7%	11.0%	2.3%
O=C(COc1c(Br)cc(Br)c2cccnc12)Nc1ccccc1F	x	-1.9%	x	8.5%	x	x	14.4%	2.7%
Cc1cc(OC(C)C(=O)Nc2ccc(S(=O)(=O)Nc3onc(C)c3C)cc2)cc(C)c1Cl (centres undefined)	x	-5.3%	x	0.8%	-6.6%	2.6%	-25.2%	2.7%
COc1ccc(OC)c(NC(=O)CSc2nnc3ccc4ccccc4n23)c1	u	x	-2.6%	x	-1.8%[46.1 µM]	u	-15.2%	x
Cc1ccc(CNc2ncnc3c2cnn3C2CCCCO2)cc1 (centres undefined)	x	x	x	x	-17.1%[46.1 µM]	-3.0%[46.1 µM]	-14.2%	10.5%
O=[N+]([O-])c1cccc(CNCc2ccccc2)c1	x	0.9%	x	-2.1%	0.2%	-19.2%[46.1 µM]	2.5%	16.9%
O=C(CSc1nnc(CN2CCCC2)n1-c1ccccc1)c1ccc2c(c1)OCO2	x	-4.4%	x	x	3.9%	-2.5%	-4.9%	-20.0%
CN(c1ccc(C(=O)Nc2cccc([N+](=O)[O-])c2)cc1)S(C)(=O)=O	x	-4.0%	x	x	-16.9%	u	u	4.9%
O=S(=O)(NCCc1ccccc1)c1cccc2cccnc12	x	-0.1%	x	x	-3.2%	4.9%	50.4%[activator]	29.7%
Cc1ccc(S(=O)(=O)N2CCOC23CCN(S(=O)(=O)c2cccs2)CC3)cc1	x	-1.3%	x	x	u	-24.5%	14.5%	-2.3%
COCCN(CCOC)C(=O)c1c[nH]c2ccc(S(=O)(=O)N(C)c3ccc(F)cc3)cc2c1=O	0.6%	-7.1%	-2.5%	0.1%	-0.9%	4.5%	15.5%	5.5%
COC(=O)C1=C(C)NC(C)=C(C(=O)OC)C1C(=O)OCC(=O)N1c2ccccc2CC1C (centres undefined)	u	3.0%	-2.7%	-4.0%	1.5%[46.1 µM]	u	4.1%&-15.5%	-15.5%&0.0%
COc1ccc(CNC(=O)[C@@H](NC(=O)C2CCN(C(=O)[C@@H](N)Cc3ccccc3)CC2)C(C)C)cc1	x	2.7%	x	-1.9%	x	x	-19.4%	-0.3%
CC(C)c1ccc(-c2nnn(CC(=O)N3CCCCC3)n2)cc1	x	1.8%	x	14.5%	x	x	12.7%	-7.5%
COc1cc2c(cc1OC)CN(CC(=O)Nc1cccc(C(F)(F)F)c1)CC2	x	2.1%	x	-1.8%	1.1%[46.1 µM]	3.9%[46.1 µM]	-13.2%	-9.3%
Cc1nc(-c2ccccc2)sc1C(=O)CSc1ccccc1	-4.1%	-11.3%	-3.0%	-13.4%	6.0%	57.0%	12.4%	-13.5%
CCOc1ccccc1-c1cc(C(=O)N/N=C/c2ccc3c(c2)OCO3)c2ccccc2n1	u	2.5%	0.7%	2.7%	u	u	-4.4%	1.3%
Nc1ccccc1C(=O)/C=C/c1ccc2c(c1)OCO2	-4.1%&-6.4%	-36.4%	-0.6%&-8.3%	-5.9%	u	u	-0.1%	u
CCOC(=O)c1cnn(-c2nc3c(C)cccc3s2)c1C(F)(F)F	5.8%	-30.2%	-14.1%	0.1%	6.9%	u	u	-2.0%
COCCNC(=O)CN(c1ccc(C)cc1)S(=O)(=O)c1ccc(SC)cc1	26.7%	-1.5%	-2.0%	-9.4%	2.3%	0.7%	13.1%	16.2%
COCCn1c(SCC(=O)N2CCC(C)CC2)nc2c(c1=O)SCC2	x	3.4%	x	1.0%	-2.1%	3.8%	-14.6%	4.4%
